Source: PubChem BioAssay (several laboratories)
UCH37 DUB inh: inhibitors of human deubiquitinating enzyme UCH37 | Q9Y5K5 | purified proteasome/UCH37, Ub-AMC cleavage fluorescence | inhibition, % (concentration not given with the values) | actives 0.33% (n = 330,000) | AID 588478;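 active = mean of two replicates above 20%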;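 note: 0% = compound-free wells with enzyme and 100% = wells lacking proteasome; stock transfer was 100 nL into about 20 µL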
Target sequence (Q9Y5K5 whole entry, looked up): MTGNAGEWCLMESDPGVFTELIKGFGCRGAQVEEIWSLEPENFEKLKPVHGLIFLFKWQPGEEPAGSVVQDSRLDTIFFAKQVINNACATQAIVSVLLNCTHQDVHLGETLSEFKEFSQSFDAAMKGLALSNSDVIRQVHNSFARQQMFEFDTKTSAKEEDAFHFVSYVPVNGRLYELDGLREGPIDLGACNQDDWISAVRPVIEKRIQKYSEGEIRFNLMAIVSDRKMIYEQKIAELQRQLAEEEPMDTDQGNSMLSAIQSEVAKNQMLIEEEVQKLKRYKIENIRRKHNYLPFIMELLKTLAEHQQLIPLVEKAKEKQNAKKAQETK
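Material: human UCH37 enzyme supplied as purified proteasome complex / Amount: 0.15 nM proteasome as dispensed / Buffer or medium: pH 7.4 Tris-HCl (50 mM) with ovalbumin, ATP-MgCl2, DTT / Times: preincubation 30 min, reaction 25 min, room temperature / Technique: AMC fluorescence from Ub-AMC cleavage, excitation 355 nm, emission 460 nm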
Beta apoptosis: blocks beta cell apoptosis; INS-1E cytokine-induced death, ATP luminescence, 48 h; percent of positive-control rescue, neutral wells zero; protection from apoptosis, % (no concentration beside the values); actives 0.8% (n = 300,000);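 active = all replicates at 75% or more, or half of them and the mean; inconclusive = half reach 75% but not the mean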;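 note: 0% = cytokine-treated negative control wells and 100% = positive control rescue; higher means more ATP so stronger rescue from cytokine killing; wells of about 40 µL received 100 nL stock; the first replicate is given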
Calb FLC: C. albicans growth modulation with fluconazole; AID 1979; actives 0.57% (n = 300,000); C. albicans CaCi-2 (fluconazole-resistant clinical isolate) + fluconazole, Alamar Blue growth, 48 h; growth inhibition, % (concentration not given with the values);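 active = most replicates above 75%; inconclusive = exactly half above 75%; inactive = most below 75%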;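 note: all wells also contain fluconazole at 8 µg/ml as a sub-toxic cotreatment; 0% = median of DMSO wells and 100% = median of geldanamycin control wells; wells of about 8 µL received 7.5 nL stock; the first replicate is given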
Beta2AR agonist: agonists of human beta-2 adrenergic receptor inducing internalization; P07550; Am2.2-beta2AR cells, FAP receptor internalization, flow cytometry; reference of the scale not given here; response, % (test concentration not listed); actives 0.43% (n = 340,000); AID 504454;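 active = response above a set limit, near 3 SD of response in nonfluorescent compounds, cut at about 42% in these data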;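 note: stock transfer was 100 nL into about 11 µL; a reference agonist was the positive control; negative values mostly stem from fluorescent compounds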
Target sequence (P07550 whole entry, looked up): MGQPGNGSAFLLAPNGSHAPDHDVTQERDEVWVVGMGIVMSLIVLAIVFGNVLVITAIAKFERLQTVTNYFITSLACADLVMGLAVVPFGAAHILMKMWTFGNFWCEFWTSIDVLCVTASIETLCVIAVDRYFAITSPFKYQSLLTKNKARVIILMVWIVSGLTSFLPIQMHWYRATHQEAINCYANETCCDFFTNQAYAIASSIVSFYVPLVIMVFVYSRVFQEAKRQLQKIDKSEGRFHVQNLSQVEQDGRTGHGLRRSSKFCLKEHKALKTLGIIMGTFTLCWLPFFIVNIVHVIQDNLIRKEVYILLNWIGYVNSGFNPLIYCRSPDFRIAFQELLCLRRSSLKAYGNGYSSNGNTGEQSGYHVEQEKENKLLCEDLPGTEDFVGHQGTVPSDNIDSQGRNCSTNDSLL
T cruzi repl: blocks replication of Trypanosoma cruzi; AID 1885; actives 1.4% (n = 300,000); inhibition, % (test concentration not listed); T. cruzi beta-gal in NIH3T3, luminescence, 90 h;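 active = mean inhibition across valid replicates above about 55%, limit read from the data; inconclusive = mean below that limit but half or more replicates reach it; inactive = mean below it, under half of replicates reach it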;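 note: signal also drops with host cell toxicity which is not excluded here; 0% = plate median of DMSO wells and 100% = zero luminescence signal; higher percent means less beta-gal luminescence so fewer parasites; stock transfer was 50 nL into about 50 µL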
LANA-H2A inh: blocks KSHV LANA binding to histone H2A/H2B. actives 0.6% (n = 320,000). Q9QR71. inhibition, % (concentration not given with the values). AID 2629. cell-free LANA-H2A/H2B peptide, fluorescence polarization; in the data active = inhibition mostly above about 10%, no sharp cut-off; inactive = mostly below about 6.7%;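 note: stock transfer was 7.5 nL into about 10 µL; 0% = median of vehicle wells and 100% = median of positive control wells; one replicate is shown; the record names a cut of 25% in any replicate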
RanGTP-Impb inh: inhibitors of RanGTP-importin-beta interaction, primary screen, biochemical, FRET, CFP-Ran, YFP-importin-beta, homogeneous; cell-free CFP-Ran/YFP-importin-beta FRET ratio; inhibition, % (no concentration beside the values); actives 1.1% (n = 300,000);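 active = most replicates above 15%; inconclusive = exactly half above 15%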;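 note: 0% = DMSO wells and 100% = Ran loaded with GDP instead of GTP; wells of about 40 µL received 100 nL stock; the first replicate is given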
A1 inh: inhibitors of the anti-apoptotic protein A1, read as caspase activation; MEF A1-2A-BIM cells, Caspase-Glo 3/7 luminescence, 3 h; percent of clofoctol response, vehicle zero; caspase activation, % (concentration not given with the values); AID 2462; actives 0.066% (n = 330,000);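 active = over half of replicate activation scores above 10%, or exactly half above 10 with the replicate mean above 10; inconclusive = replicate mean below 10 yet half the replicates above 10; inactive = over half of replicates below 10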;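 note: wells of about 30 µL received 50 nL stock; many hits fall short of the cut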
The depositor's hits bear a star; ? = inconclusive; / = no result given.

mol,UCH37 DUB inh,Beta apoptosis,Calb FLC,Beta2AR agonist,T cruzi repl,LANA-H2A inh,RanGTP-Impb inh,A1 inh
Cc1cccc(NC(=O)c2ccc(Cn3cc(C(F)(F)F)ccc3=O)cc2)c1,/,-11.4,3.3,-7.2,1.3,-4.7,48.1*,-0.5
O=C(O)C1CCC(Cn2c(SCc3cc(=O)n4cc(Br)ccc4n3)nc3ccsc3c2=O)CC1 (stereo not given),-16.4,-10.9,41.1,-16.2,-5.1,-2.9,1.3,-0.2
Clc1ccc(C(c2nnnn2C2CCCC2)N2CCSCC2)cc1 (stereo not given),1.7,-0.1,-0.9,1.1,17.3,-4.5,-0.3,-0.8
O=C(C1=C[C@H](c2coc3ccccc3c2=O)C[C@H](OCCCCO)O1)N1CCN(Cc2ccccc2)CC1,5.7,-9.6,-21.7,-5.9,22.7,5.1,-3.6,-0.5
Cc1cc(C(=O)NCC(=O)OC(C)C(=O)N2CCOCC2)ccc1[N+](=O)[O-] (stereo not given),0.4,1.3,/,16.5,/,4.7,/,0.0
C/C(=N\O)c1c(O)cc(-c2ccccc2)n(-c2ccccc2)c1=O,/,1.1,7.3,8.0,2.1,-2.0,3.5,-0.1
COc1ccc(OCC(=O)N2CCN(S(=O)(=O)c3ccccc3[N+](=O)[O-])CC2)cc1,3.0,-3.8,-1.5,-0.6,1.9,-3.8,0.1,0.4
COc1ccc(NC(=O)c2c(F)cccc2F)cc1S(=O)(=O)Nc1ccc(Br)cc1,-0.1,-2.8,3.6,0.7,20.3,/,3.8,0.4
CCOC(=O)C1CCCN(C(=O)c2cn(CC)c(=O)c3cc(OC)c(OC)cc23)C1 (stereo not given),3.3,-8.1,-12.6,-4.5,-7.3,-0.4,-0.7,-0.1
CCOC(=O)Cc1csc(NC(=O)Cc2ccc([N+](=O)[O-])cc2)n1,4.9,-1.8,11.9,3.1,-3.4,-1.4,9.1,1.2
c1ccc(OCc2nc3ccccc3[nH]2)cc1,4.8,/,-10.2,-6.2,-6.1,1.7,0.7,-2.9
COCc1cc(CNC(=O)C2CCC(=O)N(Cc3ccccc3OC)C2)[nH]n1 (stereo not given),0.1,-6.5,-2.3,13.8,6.9,2.9,-1.4,0.5
CCn1c(CSc2nc3ccccc3n2C)nc2ccccc21,-0.7,5.8,24.0,-5.2,-13.2,11.5,-4.5,-0.6
Cc1ccc(S(=O)(=O)Nc2nc3n(n2)C(c2ccc(Cl)cc2)CC(=O)N3)cc1 (stereo not given),2.8,-2.6,-9.1,-9.6,-12.7,6.4,-0.6,0.5
COc1ccc(-c2nnn(CC(=O)N(C3CCCCC3)C(C)C(=O)NC3CCCC3)n2)cc1OC (stereo not given),1.7,3.2,-8.2,-5.7,10.4,-4.1,-1.3,?
CC(=O)Oc1ccc(C(=O)Nc2cccc(NC(=O)c3ccco3)c2)cc1,5.0,1.7,-0.6,1.9,0.8,-1.5,-0.4,-1.1
CCNC(=O)CN(c1ccc(Oc2ccccc2)cc1)S(=O)(=O)c1ccccc1,6.1,/,-0.1,-6.0,2.7,0.5,-0.1,0.7
Cc1cc(C)nc(-n2nc(C)c3c(=O)[nH]c(C(F)(F)F)nc32)n1,-6.8,1.3,-19.2,0.0,-34.6,-0.2,?,0.1
O=C1c2cccc(OCC(=O)N3N=C(c4cccs4)CC3c3ccc(F)cc3)c2CCN1Cc1ccccc1 (stereo not given),-150.4,19.2,-5.4,-4.9,?,-2.2,?,0.2
CCOC(=O)C(NC(=O)N1CCCCC1)(c1ccccc1)C(F)(F)F (stereo not given),2.3,/,1.6,10.7,-6.6,-3.3,-3.1,0.2
NC(=O)[C@@H]1CCCN1C(=O)c1cc(COc2ccc(F)cc2F)on1,-0.3,-1.3,8.1,-0.1,-1.7,-0.5,-1.6,-3.1
CCOC(=O)Cn1c(=N)n(CCOc2ccc(OC)cc2)c2ccccc21,1.2,-7.0,-4.0,1.8,-11.8,1.8,-2.8,-0.7
O=C(Nc1ccccc1)OCC1CCCO1 (stereo not given),1.4,/,-1.1,3.1,-4.3,-1.7,1.9,0.5
Cc1ccc(NC(=S)Nc2ccc(OC(F)F)c(Cl)c2)cc1Cl,4.4,4.2,-31.1,0.7,13.4,5.4,-4.1,0.9
CCN(CC(=O)NCc1ccc(F)cc1)CC(=O)Nc1ccc(Br)cc1F,2.4,0.8,/,5.4,/,3.1,/,-0.5
O=C(Nc1ccc(S(=O)(=O)Nc2ncccn2)cc1)c1ccco1,2.6,1.7,1.4,-9.4,-14.6,-2.3,4.4,0.3
Cc1ccc(NC(=O)c2ccc(CSc3nccc(C)n3)cc2)cc1,2.4,-7.0,19.9,-3.9,22.2,-0.4,-4.1,-1.6
O=C(NC(=S)N1CCN(c2ccccc2)CC1)c1ccccc1,/,/,-16.4,2.0,-18.7,-2.5,-1.3,-0.2
CC1(c2ccccc2)CC(c2ccccc2)=Nc2nonc2N1 (stereo not given),6.6,-1.9,29.7,13.5,5.3,-2.1,-4.5,0.0
O=C1C(Cl)=C(NCC2CCCO2)C(=O)N1c1cccc(Cl)c1Cl (stereo not given),-14.2,-6.6,-2.8,16.3,-18.4,2.9,-6.3,0.4
C[N+](C)(CC#N)C/C=C\c1ccccc1,0.7,-5.4,-4.1,0.8,-10.3,-0.1,-1.8,-0.5
CN(Cc1ccccc1)C(=O)COC(=O)CCC(=O)c1ccc(F)cc1,3.6,-1.5,/,0.5,/,2.4,/,-0.7
CCOc1ccc(N2CC(C(=O)NNC(=O)c3ccc(F)cc3)CC2=O)cc1 (stereo not given),-0.4,1.5,/,-2.4,/,4.1,/,-1.2
Cc1ccc(S(=O)(=O)NCC2CCC(C(=O)NC3CCCCC3)CC2)cc1 (stereo not given),4.9,-5.0,1.5,5.2,2.7,0.6,-1.8,1.2
O=C(CN1C(=O)c2ccccc2S1(=O)=O)N1CCc2ccccc2C1,6.3,0.8,9.8,-2.4,-5.1,0.5,2.1,0.1
Cc1cc(C)c(-c2cc(C(F)(F)F)no2)c(=O)[nH]1,-46.5,-8.3,20.5,9.9,-5.9,3.3,-2.4,-1.3
O=C(NC(=S)Nc1cccc(NC(=O)c2ccc(Cl)cc2Cl)c1)c1cccs1,/,3.5,-10.9,-0.8,0.8,2.1,-3.3,1.7
CC(=O)Nc1ccc(NC(=O)CSc2nnnn2C2CCCCC2)cc1,4.7,6.1,-2.4,-11.1,5.8,-0.9,0.8,0.8
CC(=O)Oc1ccc(C(=O)Nc2ccccc2C(=O)N2CCCC2)cc1,0.1,1.3,-5.2,-3.8,-18.1,-2.2,5.2,-0.3
CCOC(=O)Cc1csc(SCC(=O)c2c(N)n(CC(C)C)c(=O)n(C)c2=O)n1,1.7,/,-17.4,21.2,-13.2,-0.8,?,0.9
O=C1NC[C@@H](Cc2cccc3ccccc23)N(CC2CCCCC2)C1=O,-0.2,1.6,-7.6,2.0,-0.5,-3.5,4.2,1.0
Clc1ncnc2scc(C3COc4ccccc4O3)c12 (stereo not given),3.6,-2.1,-7.8,13.4,10.1,10.1,1.2,0.4
CCCc1cc(C(=O)N2CCN(c3ccccc3C)CC2)cs1,2.7,-1.4,-2.4,-5.8,26.6,2.0,4.3,-0.3
O=C(NC1CC(=O)N(c2ccc(F)cc2)C1)N1CCN(C(=O)c2ccco2)CC1 (stereo not given),-0.4,0.0,-3.7,2.5,-5.3,0.0,2.9,0.4
O=C(CCc1ccccc1)Nc1cccc(S(=O)(=O)N2CCOCC2)c1,1.7,-0.5,/,-8.3,/,-6.5,/,0.8
CCCC1CCC(=NNC(=O)CNc2ccc(OC)cc2)CC1 (stereo not given),2.4,-2.7,-0.6,-5.6,-5.9,-5.5,7.6,-0.6
CCOc1ccc(-c2nc(C#N)c(N3CCN(CC)CC3)o2)cc1,-62.2,-1.5,-8.0,-12.9,11.4,-2.1,2.9,-0.3
Cc1nnc(SCC(=O)Nc2nnc(-c3ccccc3)o2)s1,1.7,/,-12.6,3.3,1.9,3.9,-3.7,1.5
COc1ccc(F)cc1S(=O)(=O)N1CCC(C(N)=O)CC1,5.4,-1.6,9.7,2.8,3.9,-0.1,-0.8,0.1
COc1ccc(Nc2nc(Nc3ccc(OC)cc3)nc(-n3[nH]c(=O)c(C)c3C)n2)cc1,5.4,7.1,1.1,10.7,14.9,-2.2,-2.4,0.2
CSc1ccccc1NS(=O)(=O)c1cccc2nonc12,1.4,-3.1,?,2.4,-0.1,-3.7,-5.4,0.3
CC(=O)c1c(C)[nH]c(C(=O)OCCOc2ccccc2)c1C,1.5,7.6,18.6,-0.4,10.2,-3.3,0.0,-0.9
Cc1ccc2nc(NC(=O)c3ccc4c(c3)OCO4)sc2c1,-45.3,/,-15.7,-4.8,13.9,3.4,-1.2,-6.8
Cc1cccc(C(=O)Nc2ccc(Oc3cnccn3)cc2)c1,2.4,-2.0,-4.8,-1.6,14.9,0.6,-1.0,-8.3
CC(C)(C)c1ccc(C(=O)NCC(=O)OCC(=O)Nc2nc(-c3ccc(F)cc3)cs2)cc1,-0.2,-0.5,1.9,-2.4,-10.4,3.2,3.1,-5.5
Cc1cc(C)c(C)c(S(=O)(=O)N2CCC(C(=O)Nc3ccccc3N3CCOCC3)CC2)c1C,2.6,-3.6,9.2,21.8,14.0,4.1,-1.5,0.1
O=C(Nc1ncc(Cc2cccc(Cl)c2)s1)C1=NCCN1,6.6,19.8,25.5,5.7,-6.5,4.3,0.9,0.1
C=CCn1c(SCC(=O)NCc2ccccc2)nnc1-c1cc(Br)ccc1O,-1.3,11.8,52.1,2.9,-2.1,2.0,-2.2,-0.6
CCC(C)(C)NC(=O)Cc1ccc(Cl)cc1,1.2,-8.0,-25.8,7.9,-7.1,4.6,4.6,0.7
COc1ccccc1N1CCN(/N=C/c2cc(Br)ccc2F)CC1,/,2.4,18.0,12.7,3.2,-9.5,-2.1,0.3

New compounds follow.
mol,UCH37 DUB inh,Beta apoptosis,Calb FLC,Beta2AR agonist,T cruzi repl,LANA-H2A inh,RanGTP-Impb inh,A1 inh
N=c1n(CC(=O)c2cccc([N+](=O)[O-])c2)c2ccccc2n1Cc1ccccc1,5.8,25.4,-21.1,-3.9,11.4,0.1,-1.5,0.2
Cc1cccc(N2CCN(C(=O)Cc3ccc(-n4c(=O)[nH]c5ccsc5c4=O)cc3)CC2C)c1 (stereo not given),/,4.3,3.7,-6.8,10.6,-3.4,1.3,0.7
COc1ccc(C(=O)OCC(=O)NC2CCCC2)c(OC)c1,0.8,/,-9.8,-7.5,-6.3,4.9,-2.0,0.5
CCOc1ccc(C(=O)NC(=S)Nc2ccccc2N2CCOCC2)cc1Br,2.7,-6.7,-0.3,-4.8,27.7,6.5,1.5,0.1
